SARS PLpro yeast: qHTS of Yeast-based Assay for SARS-CoV PLP; S. cerevisiae expressing SARS-CoV PLpro, growth rescue; control for the full effect not named in the record; Potency, µM (series often up to 32.9 µM), without a hit: at the highest dose activity, positive = growth rescue; 0.19% of 330,000 active; active means well fitted rising curve with a large enough effect; inconclusive means small, poorly fitted or top-dose-only effect; inactive means no such curve, though single readings can be large or run the other way; also: 0% is about no effect; nearly all actives have a fitted effect of over 55% in size; growth read by luminescence after 48 h
LASV entry inh: qHTS for Inhibitors of binding or entry into cells for Lassa Virus; Lassa virus pseudotype entry inhibition, cell reporter; control for the full effect not named in the record; Potency, µM (series often up to 37.9 µM), for the others: at the highest dose activity change, negative = inhibition, most hits filed as inhibitors; 1.2% of 300,000 active; AID 540256, 2011; active means well fitted inhibition curve with a large enough effect; inconclusive means small, poorly fitted or top-dose-only effect, or effect the other way; inactive means flat fitted curve, though single readings scatter; tested in HEK293 cells; also: % is scaled to controls: 0 for no effect and ±100 for the full control effect; nearly all actives have a fitted effect of over 50% in size; luciferase read-out
Cruzain noTriton: qHTS Assay for Promiscuous and Specific Inhibitors of Cruzain (without detergent); Cruzipain (Trypanosoma cruzi), P25779; purified cruzain, Z-FR-AMC fluorescence, no detergent; 2.3% of 200,000 active; Potency, µM, inactives show max response, negative = inhibition, hits mostly inhibitors;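 also: plate controls were enzyme without inhibitor for no effect and buffer without enzyme for full effect; nearly all actives have a fitted effect of over 40% in size; top concentration of the series not given in the record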
Target sequence (P25779 123-467 limits assumed): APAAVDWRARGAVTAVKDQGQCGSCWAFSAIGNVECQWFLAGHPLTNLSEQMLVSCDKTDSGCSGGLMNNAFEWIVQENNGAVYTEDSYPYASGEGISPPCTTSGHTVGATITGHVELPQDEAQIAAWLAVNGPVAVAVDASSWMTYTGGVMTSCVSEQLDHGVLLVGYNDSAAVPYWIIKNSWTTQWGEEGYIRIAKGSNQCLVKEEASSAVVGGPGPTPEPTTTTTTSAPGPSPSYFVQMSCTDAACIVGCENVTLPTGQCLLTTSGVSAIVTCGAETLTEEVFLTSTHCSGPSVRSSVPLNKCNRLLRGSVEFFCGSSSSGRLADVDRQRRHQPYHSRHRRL
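Purified cruzain at 1.5 nM, pre-incubated 15 min with compound at room temperature in 100 mM sodium acetate pH 5.5, 5 mM DTT, 0.00005% Triton X-100. Reaction started with 2 uM Z-FR-AMC; AMC fluorescence increase over 60 s gives rate.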
Marburg entry inh: qHTS for inhibitors of binding or entry into cells for Marburg Virus; Marburg virus pseudotyped entry inhibition, cell reporter; control for the full effect not named in the record; about a third of the inactives were read at about 46 µM; 1.8% of 300,000 active; Potency, µM (titrated, usually from 37.8 µM), inactives show top-dose activity change, negative = inhibition, usual class: inhibitors; active = well fitted inhibition curve with a large enough effect; inconclusive = small, poorly fitted or top-dose-only effect, or effect the other way; inactive = flat fitted curve, though single readings scatter; tested in HEK293 cells; about a fifth of its hits are not listed in these tables; also: % is scaled to controls: 0 for no effect and ±100 for the full control effect; luciferase read-out
Cruzain Triton: qHTS Assay for Promiscuous and Specific Inhibitors of Cruzain (with detergent); Cruzipain (Trypanosoma cruzi), P25779; purified cruzain, Z-FR-AMC fluorescence, 0.01% Triton; Potency, µM, without a hit: max response, negative = inhibition, actives largely listed as inhibitors; 0.43% of 200,000 active; AID 1478, 2009;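 also: plate controls were neutral wells for no effect and buffer without enzyme for full effect; nearly all actives have a fitted effect of over 40% in size; top concentration of the series not given in the record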
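Cysteine protease activity tested under reducing, mildly acidic conditions (100 mM sodium acetate pH 5.5, 5 mM DTT) plus 0.01% Triton X-100. Cruzain 1.5 nM; substrate Z-FR-AMC 2 uM; 15 min compound preincubation at room temperature.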
NS1 function inh: qHTS Assay for Inhibitors of Influenza NS1 Protein Function. AID 2326, 2010. S. cerevisiae slowed by influenza A NS1, growth recovery by OD600. 0.4% of 270,000 active. Potency, µM (top dose mostly 46.1 µM), for the others: at the top dose activity, positive = more growth; active means well fitted rising curve with a large enough effect; inconclusive means small, poorly fitted or top-dose-only effect; inactive means no such curve, though single readings can be large or run the other way; also: nearly all actives have a fitted effect of over 50% in size
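Compounds were scored for reversing the slow growth caused by influenza A NS1 in S. cerevisiae, measured by optical density at 600 nm. Assay medium contained 2% galactose at pH 6.0; NS1-free yeast of the same strain were the positive control.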
RE007 growth inh: qHTS Assay for Inhibitors of the HIV-1 protein Vpr | S. pombe RE007 Vpr strain, BacTiter-Glo ATP luminescence, 24 h; control for the full effect not named in the record | Potency, µM (highest dose often 92.2 µM), without a hit: top-dose activity change, negative = less growth | 0.21% of 360,000 active | AID 651644, 2012; active = well fitted falling curve with a large enough effect; inconclusive = small, poorly fitted or top-dose-only effect; inactive = no such curve, though single readings can be large or run the other way;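 also: % is scaled to controls: 0 for no effect and ±100 for the full control effect; nearly all actives have a fitted effect of over 50% in size; the assay follows cell death caused by Vpr and the record does not say whether a fall means rescue or toxicity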
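Fission yeast strain RE007, carrying one chromosomally integrated HIV-1 vpr copy, was seeded at OD 0.01 in PMG+AL medium with 23 nL pinned compound. After 24 h at 30 °C and 99% humidity, viability was read by BacTiter-Glo luminescence.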
2A StopGo: High Throughput Screening for Foot and Mouth Disease Virus Antivirals; human cells with a luciferase reporter of 2A StopGo recoding; control for the full effect not named in the record; Potency, µM (highest dose often 57.9 µM), for inactives: top-dose signal change, negative = less light; 1.2% of 410,000 active; active = well fitted falling curve with a large enough effect; inconclusive = small, poorly fitted or top-dose-only effect; inactive = no such curve, though single readings can be large or run the other way; tested in HEK293T cells; also: % is scaled to controls: 0 for no effect and ±100 for the full control effect; nearly all actives have a fitted effect of over 45% in size; luciferase light after 4 h
* hit, by the source's call; ? = inconclusive; / = no result given; & = joins results of further samples; [ ] = another dose, or the depositor's remark. Unless noted, calls follow the shape of the dose curve; as a rule, active = well fitted curve in the direction sought with a large enough effect; inconclusive = small, poorly fitted or top-dose-only effect, or another doubt; inactive = no such curve, though single readings can be large; an effect the other way counts as inactive or inconclusive. Potency is read from the fitted curve at half-maximal effect. Outcome played no part in choosing rows (roughly 4.5% active in at least one column).

SMILES	SARS PLpro yeast	LASV entry inh	Cruzain noTriton	Marburg entry inh	Cruzain Triton	NS1 function inh	RE007 growth inh	2A StopGo
COc1ccc(C(=O)Oc2cc(/C=N/NS(=O)(=O)c3ccccc3)ccc2OC)cc1	3%	-26%	-29%	11%	-3.0%	15%	15%	7%
CCn1c(SCC(=O)NC(=O)NCc2ccco2)nc2sc(C)c(C)c2c1=O	1%	2%	1%	2%	-12%	1%	18%	-22%
CC1=NN(C(N)=S)C(=O)C1N=Nc1ccccc1Cl (stereo not drawn)	-7%	/	/	/	/	-134%	?	47%[activator]
COc1ccc(-c2cc(=O)c(C(=O)c3ccc(C)cc3)n[nH]2)cc1	0%	0%	/	8%[46.1 µM]	/	/	21%	11%
Cc1cc(C)cc(NC(=O)COc2ccc(C(=S)N3CCOCC3)cc2)c1	1%	0%	/	?	/	/	14%	-24%
CC(Sc1ccccc1)C(=O)NNC(=O)c1ccncc1 (stereo not drawn)	-4%	?	/	-1%	/	/	56%	-10%
O=C(CNC(=O)c1ccccc1F)Nc1ccccc1C(F)(F)F	0%	13%[46.1 µM]	/	15%[46.1 µM]	/	-2%	-12%	24%
COc1ccccc1CNC(=O)CS(=O)(=O)c1cccc2nsnc12	/	21%[46.1 µM]	17%	/	-0.7%	/	/	0%
CCN1CCN(S(=O)(=O)c2ccc(Cl)c(C(=O)NCCc3ccccc3)c2)CC1	-5%	11%	/	?	/	/	1%	13%
CCCN1C(=O)c2cc(C(=O)NCc3ccc(OC)cc3)ccc2C1O (stereo not drawn)	-16%	-17%	19%	31%	0.9%	3%	12%	4%
Cc1ccc(-c2[nH]nc3c2C(c2cccnc2)C(C#N)=C(N)O3)cc1 (stereo not drawn)	1%	7%	/	-2%	/	-3%	-1%	-11%
CCOC(=O)C1(C(=O)OCC)NC(=O)CC1CC (stereo not drawn)	/	16%	/	13%	/	/	1%	-2%
O=C(NCCc1ccccn1)c1ccc(OC(F)F)cc1	-4%	-24%[46.1 µM]	/	?	/	/	3%	0%
CC(=O)Nc1ccc(S(=O)(=O)NC2(C(F)(F)F)C(=O)Nc3c2c(=O)[nH]c(=O)n3Cc2ccco2)cc1 (stereo not drawn)	0%	-2%[46.1 µM]	/	19%[46.1 µM]	/	/	-17%	5%
CC(=O)Nc1cccc(N(C)C)c1	-5%	-11%	-3%	-8%	5.9%	7%	4%	-15%
O=C(COC(=O)/C=C/c1ccc(OC(F)F)cc1)NCc1cccs1	?	?	-1%	9%	-2.8%	-2%	-4%	-7%
CCOC(=O)C(CCCOc1ccccc1)C(=O)OCC	-5%	4%	2%	8%	-3.1%	-66%	-29%	-29%
O=C(N/N=C/C=C/c1ccco1)/C(=C/c1ccccc1)NC(=O)c1ccccc1	3%	-22%	?	3%	-14%	26%	-17%	9%
COC(=O)c1ccc(NC(=O)CCNS(=O)(=O)c2cccc3nonc23)cc1	2%	?	-8%	5%&5%	-1.5%	2%	-13%	-16%
COc1ccc(OCc2cccc(C(=O)Nn3cc([N+](=O)[O-])cn3)c2)cc1	-108%	?	14%	?	1.1%	6%	1%	-60%
COc1ccc2c(c1OC)C(=O)OC2	1%	/	/	/	/	-2%	6%	-3%
O=C(O)C1CCCCC1C(=O)Nc1ccccc1C(=O)N1CCN(c2ccc(F)cc2)CC1 (stereo not drawn)	-1%	1%	6%	26%	-2.7%	6%	16%	-9%
CC1Cc2ccccc2N1CC(=O)NCc1ccccc1Cl (stereo not drawn)	21%	6%	-19%	?	-9.4%	4%	4%	-6%
O=c1[nH]c2ccccc2nc1-c1c[nH]c2ccccc12	-1%	/	/	/	/	0%	-1%	37%[activator]
COc1ccc(Nc2cc(C(=O)NCCCN(C)c3ccccc3)c3ccccc3n2)c(OC)c1	/	-17%[46.1 µM]	-13%	/	-5.0%	/	/	-28%
The results go on.
SMILES	SARS PLpro yeast	LASV entry inh	Cruzain noTriton	Marburg entry inh	Cruzain Triton	NS1 function inh	RE007 growth inh	2A StopGo
COCCCNC(=O)CN1C(=O)COc2ccc(S(=O)(=O)N3CCCC3)cc21	/	1%[46.1 µM]	-7%	-11%[46.1 µM]	2.4%	/	/	13%
COc1ccc(-c2nn(CCC#N)cc2C(=O)Nc2ccccn2)cc1OC	1%	20%[46.1 µM]	/	-4%[46.1 µM]	/	12%	-5%	0%
O=C(NC(=S)Nc1ccc(S(=O)(=O)Nc2ncccn2)cc1)c1cccc(Br)c1	1%	-18%	/	-25%[46.1 µM]	/	1%	2%	11%
Cc1cc(C(=O)OCC(=O)Nc2cc(Cl)ccc2C)c(C)o1	-2%	-27%	/	16%	/	/	-20%	-5%
c1ccc2c(c1)nc(NCCN1CCOCC1)c1nncn12	1%	-8%	15%	4%	-3.1%	?	2%	-15%
CCc1cccc(NC(c2nnc(-c3ccccc3)o2)c2ccc(F)cc2Cl)c1 (stereo not drawn)	/	?	-2%	/	-7.2%	/	/	-20%
Oc1ccc[n+](CCCCC[n+]2cccc(O)c2)c1	0%	/	/	1%	/	-4%	-12%	-14%
CCCOc1cccc(C2C(C(=O)c3ccc(C)o3)=C(O)C(=O)N2CCN2CCOCC2)c1 (stereo not drawn)	0%	3%[46.1 µM]	/	?	/	13%	-2%	13%
O=C(NCc1ccccc1F)Nc1ccc([N+](=O)[O-])cc1	1%	?	/	?	/	/	-13%	37%[activator]
O=C(Oc1ccc2ccccc2c1)c1ccccc1	4%	11%	-6%	28%	-2.5%	-11%	-5%	54%[activator]
Nc1ccccc1OCCOc1ccccc1N	1%	30%	/	14%	/	6%	15%	33%[activator]
CCOC(=O)c1cnn2c1[nH]c(=O)c1ccccc12	-2%	5%	-5%	-16%&-16%	-0.2%	-10%	7%	4%
COc1ccc(N2C(=O)CC(NCc3ccc(F)cc3)C2=O)cc1 (stereo not drawn)	-24%	5%	-8%	0%	-0.5%	-2%	?	0%
Cc1ccc(S(=O)(=O)C(C#N)c2nc3ccccc3nc2N2CCN(C)CC2)cc1C (stereo not drawn)	-1%	-21%	?	-60%	0.7%	-13%	22%[3.69 µM]	14%
C/C(=N\NC(=O)c1c[nH]c2ccccc12)c1ccc(C)o1	-11%	-7%	2%	?	-0.3%	-1%	-8%	18%
COc1cc2c(cc1OC)CN(C(=O)c1ccc(S(=O)(=O)N3CCCCCC3)cc1)CC2	-2%	0%	11%	?	-8.6%	11%	-2%	-8%
CC(=O)NC(Cc1cccc(F)c1)C(=O)NC1CCN(c2ncccc2[N+](=O)[O-])CC1 (stereo not drawn)	0%	/	/	/	/	-1%	?	-14%
O=C(CCCNS(=O)(=O)c1ccccc1)NCc1ccco1	2%	-7%	-1%	?	2.0%	1%	-4%[3.69 µM]	-5%
CCOC(=O)[C@@H]1[C@H]2COc3ccccc3[C@H]2N2C(=O)N(c3ccc(C)cc3)C(=O)[C@]12C	-8%	/	/	/	/	20%	3%	-8%
COc1ccccc1-c1c(NC(=O)c2ccco2)n(C)c2ccccc2c1=O	1%	-8%[46.1 µM]	/	?	/	6%	-6%	-4%
COc1cccc(CNC(=O)Cn2cc([N+](=O)[O-])cn2)c1	0%	-4%	/	?	/	14%	-7%	-8%
CCN(CC)CCN(C(=O)c1ccc2ncsc2c1)c1nc2cc3c(cc2s1)OCO3	-3%	6%[46.1 µM]	/	?	/	5%	-9%	?
CCCC(=O)OCCNc1cc(Sc2nccn2C)c2nonc2c1[N+](=O)[O-]	?	?	8%	?	-19%	-18%	-6%	35µM*
COc1ccccc1N1CCN(C(=O)C2CCCO2)CC1 (stereo not drawn)	-2%	8%	-10%	18%	2.2%	9%	13%	/
CCC1=C(OC(=O)N(CC)CC)N2C(=O)OC(=NCCc3c[nH]c4ccccc34)[C@]2(C)[C@H]2C1=CC[C@H]1C(=O)N(CC(=O)OC)C(=O)[C@H]12	-2%	/	?	/	-7.5%	-3%	2%	4%
Continued:
SMILES	SARS PLpro yeast	LASV entry inh	Cruzain noTriton	Marburg entry inh	Cruzain Triton	NS1 function inh	RE007 growth inh	2A StopGo
Cc1ccc(/C=C2\OC(=O)c3ccccc32)cc1	5%	?	4%	-2%	-6.1%	-17%	-12%	0%
COC(=O)CCN(c1ccccc1)S(=O)(=O)c1cc(-c2cc(C)no2)ccc1OC	2%	?	-13%	-13%&-13%[46.1 µM]	4.6%	-14%	6%	11%&14%
Cc1c(OCC(=O)OC(C)(C)C)ccc2c3c(c(=O)oc12)CCC3	5%	?	14%	-4%	-3.2%	-31%	5%	?
CC(=O)c1cccc(NC(=O)CSc2ccc(-c3ccc4c(c3)OCO4)nn2)c1	6%	15%	-14%	-1%	-2.3%	17%	-23%	-1%
COc1ccc(S(=O)(=O)n2nc(C)c(S(=O)(=O)N3CCCCC3)c2C)cc1	/	14%[46.1 µM]	5%	/	-0.4%	/	/	7%
Cc1nnsc1NC(=O)OCCCl	-2%	8%	-5%	?	3.7%	0%	4%	0%
CC(NS(=O)(=O)c1ccc(Br)cc1)C(=O)NCc1ccc2c(c1)OCO2 (stereo not drawn)	0%	8%	/	-19%[46.1 µM]	/	-1%	16%	17%
Cc1ccc(-c2ccc(=O)n(C(C)C(=O)Nc3ccccc3Cl)n2)cc1C (stereo not drawn)	/	6%[46.1 µM]	28%	-19%[46.1 µM]	-11%	/	/	-16%
COC(=O)c1sc2nc(CSc3ccc(Br)cc3)[nH]c(=O)c2c1C	0%	/	/	/	/	10%	5%	-3%
Cc1ccccc1-c1nc(CN2CCC(C(=O)NC3CCCCC3)CC2)c(C)o1	-5%	-8%[46.1 µM]	/	16%[46.1 µM]	/	-6%	3%	-14%
CC(C)[C@H](CN(N=O)[C@@H](Cc1ccccc1)CN(C)N=O)N(CCc1ccccc1)N=O	0%	/	/	/	/	1%	5%	4%
